High-throughput results from PubChem BioAssay.
Env fusion inh: HIV envelope-mediated fusion inhibition; HeLa-JRFL Env/CEM21 cell fusion, luciferase; 360,000 tested, 1.1% active; inhibition, % at 12.3 µM;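 active = mean replicate inhibition score of at least 50 and every replicate individually at or above 50; inconclusive = only one of the two criteria met; inactive = mean below 50 and not all replicates reaching 50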;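 note: 0% = plate neutral controls and 100% = maraviroc near 300 nM; one replicate is shown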
eIF4H FP inh: inhibitors of RNA binding by human eIF4H. Q15056. eIF4H fluorescence polarization binding assay. inhibition, % at 35 µM. 290,000 tested, 0.94% active;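 active = 50% or more with normal probe brightness, or confirmed in later tests; inconclusive = above 50% with abnormal brightness, or retests that disagree; inactive = below 50% or failed in later tests; about a fifth of its hits are not listed in these tables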;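 note: calls also rest on retests at 20 µM and on dose response follow-up; 0% = protein and probe with vehicle and 100% = probe without protein; strong numbers were not always called active; many hits fall short of the cut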
MT1-MMP act inh: MT1-MMP (human) activation inhibition. HT1080 RFP-PRO-GFP cells, GFP/RFP ratio fluorescence, overnight; percent of plate control window, DMSO zero. GFP/RFP ratio change, % at 20 µM. 360,000 tested, 0.061% active;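 active = GFP/RFP ratio change of at least 30% with cell ATP level not reduced by more than half and red fluorescence within 50% of control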; note: strong numbers were not always called active
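system = RFP-PRO-GFP reporter HT1080 cells | dosing = 20 µM single dose, 1% DMSO | timing = overnight cell settling, then overnight compound exposure, 37 °C, 5% CO2 | read-out basis = GFP/RFP fluorescence ratio | controls = DMSO and RFP-L50D-GFP cell wells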
Rce1 inhib: inhibitors of yeast Ras-converting enzyme; calls only; yeast membranes, quenched prenylated peptide cleavage fluorescence; AID 2563; 290,000 tested, 0.27% active; Q03530;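 active = fall in fluorescence gain of 50% or more versus controls, with final raw signal at or below 3038400; inconclusive = same 50% fall but final raw signal above 3038400; inactive = fall in fluorescence gain under 50%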;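 note: plate controls were neutral control wells for no effect and wells lacking membranes for full effect; tested at 10 µM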
Target sequence (Q03530 whole entry, looked up): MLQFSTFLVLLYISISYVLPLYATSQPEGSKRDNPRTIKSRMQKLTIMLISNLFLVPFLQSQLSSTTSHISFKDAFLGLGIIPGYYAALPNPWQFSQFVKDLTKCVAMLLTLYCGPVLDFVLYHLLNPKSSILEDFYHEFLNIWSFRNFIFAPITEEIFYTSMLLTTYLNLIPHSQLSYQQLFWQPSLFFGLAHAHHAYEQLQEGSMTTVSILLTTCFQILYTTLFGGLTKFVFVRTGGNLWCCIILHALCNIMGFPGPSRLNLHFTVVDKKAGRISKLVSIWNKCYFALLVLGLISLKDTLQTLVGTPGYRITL
UUG fidelity: yeast start codon fidelity modulation; S. cerevisiae UUG-firefly luciferase reporter, luminescence/redox ratio; activity score, % at 18.7 µM; 350,000 tested, 0.13% active; AID 602363;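 active = replicate mean at a twofold rise or more, about +100% in these data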;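 note: firefly luciferase made from a UUG start codon reports start codon fidelity; reporter light over untreated wells divided by growth signal over untreated wells; some hits fall short of that in this replicate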
CSC inhib: blocks cancer stem cells | cancer stem cell-like cells viability, luminescence | inhibition, % at 7.5 µM | 300,000 tested, 1.1% active | AID 2717;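 active = mean at 75% or more and at least half the replicates too; inconclusive = mean and replicates disagree; tested in HMLE shEcad cells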;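 note: 0% = median of negative and 100% = median of positive control wells; the first replicate is given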
PABP polyA inh: PABP-poly(A) binding inhibition; inhibition, % at 35 µM; 290,000 tested, 1% active; P11940; AID 2014; PABP-poly(A) RNA binding, fluorescence polarization;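 active = 50% or more with normal probe brightness, or confirmed in later tests; inconclusive = above 50% with abnormal brightness, or retests that disagree; inactive = below 50% or failed in later tests; about a fifth of its hits are not listed in these tables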;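 note: calls also rest on retests at 20 µM and on dose response follow-up; controls were probe without protein and protein plus probe with vehicle; some compounds called inactive have numbers as strong as hits; many hits fall short of the cut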
MT1-MMP act inh RFP: second read-out of MT1-MMP act inh, no call of its own (marks repeat the call); RFP signal change, %; measured here: RFP expression control read;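 0 = vehicle wells; hits needed this value within 50% of zero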
* = called active by the depositor. The order is random; about 2.9% have a hit in one of these screens.

Screening CC(=O)NCCNC(=O)c1ccc(CSc2nc3ccccc3s2)cc1 returned Env fusion inh -245, eIF4H FP inh 3, MT1-MMP act inh 4, Rce1 inhib inactive, UUG fidelity -63, CSC inhib -5, PABP polyA inh 10 and MT1-MMP act inh RFP -4.
Screening CSCc1cc(N2CCOCC2)nc(SCc2ccc(Cl)c(Cl)c2)n1 returned Env fusion inh 63*, eIF4H FP inh -8, MT1-MMP act inh -7, Rce1 inhib inactive, UUG fidelity -26, CSC inhib 23, PABP polyA inh -8 and MT1-MMP act inh RFP -5.
Screening Cc1ccccc1Cc1ccc(Cl)nn1 returned Env fusion inh 6, eIF4H FP inh -7, MT1-MMP act inh -3, Rce1 inhib inactive, CSC inhib -2, PABP polyA inh 30 and MT1-MMP act inh RFP 1.
`N#Cc1ccccc1S(=O)(=O)c1ccccc1C(=O)Nc1ccccc1` gave Env fusion inh 24, eIF4H FP inh -8, MT1-MMP act inh 0, Rce1 inhib inactive, UUG fidelity -9, CSC inhib -9, PABP polyA inh -2 and MT1-MMP act inh RFP -1.
COc1ccc(/C=N/OCC(=O)NCC(C)C)c(OC)c1 was read as Env fusion inh -2, eIF4H FP inh -2, MT1-MMP act inh 3, Rce1 inhib inactive, UUG fidelity -17, CSC inhib -4, PABP polyA inh 1 and MT1-MMP act inh RFP -2.
Screening Cc1ccccc1N1CCN(c2ncnc3c2cnn3Cc2ccc(Cl)cc2)CC1 returned eIF4H FP inh 4, MT1-MMP act inh -13, Rce1 inhib inactive, UUG fidelity -4, CSC inhib 45, PABP polyA inh 8 and MT1-MMP act inh RFP -22.
For CC(C)c1nc2n[nH]c(N)c2c2c1CCC2 the results were eIF4H FP inh -1, MT1-MMP act inh 10, Rce1 inhib inactive, UUG fidelity -6, CSC inhib -17, PABP polyA inh 8 and MT1-MMP act inh RFP -1.
For CCCCCCCNC(=O)C1(CC2CC(c3cccc(Br)c3)=NO2)CCN(C(=O)C2(C)CC2)CC1 (stereo not given) the results were Env fusion inh -3, MT1-MMP act inh -8, UUG fidelity -13, CSC inhib 7 and MT1-MMP act inh RFP -12.
Screening CC(C)C(=O)Nc1ccc(C(=O)NNC(=O)CCc2ccccc2)cc1 returned Env fusion inh 4, eIF4H FP inh -4, MT1-MMP act inh -2, Rce1 inhib inactive, UUG fidelity -16, CSC inhib -10, PABP polyA inh 2 and MT1-MMP act inh RFP -3.
Screening O=C1C(Cl)=C(N2CCOCC2)C(=O)N1CCc1ccccc1 returned Env fusion inh -70, eIF4H FP inh 1, MT1-MMP act inh -2, Rce1 inhib inactive, CSC inhib -14, PABP polyA inh 4 and MT1-MMP act inh RFP -4.
`CC(=O)c1cccc(N(C(=O)Cn2nnc3ccccc32)C(C(=O)NCC2CCCO2)c2ccc(N3CCOCC3)cc2)c1` (stereo not given) gave Env fusion inh 11, eIF4H FP inh -5, MT1-MMP act inh -4, Rce1 inhib inactive, CSC inhib -4, PABP polyA inh 0 and MT1-MMP act inh RFP 3.
For CC1(C(=O)NCc2cccc3ccccc23)CCN1C(=O)C1(c2ccccc2)CCCC1 (stereo not given) the results were Env fusion inh 15, MT1-MMP act inh -17, UUG fidelity -2 and MT1-MMP act inh RFP -21.
For O=C(Cc1c(O)c2ccccc2[nH]c1=O)NCc1ccccc1 the results were eIF4H FP inh 2, MT1-MMP act inh 3, Rce1 inhib inactive, UUG fidelity -15, CSC inhib -11, PABP polyA inh 12 and MT1-MMP act inh RFP 5.
Screening CC(C)Cc1ccc(CN2CCCC(NC(=O)c3nn(C)c(=O)c4ccccc34)C2)cc1 (stereo not given) returned Env fusion inh inconclusive, eIF4H FP inh -3, MT1-MMP act inh 2, Rce1 inhib inactive, UUG fidelity 12, PABP polyA inh -10 and MT1-MMP act inh RFP 1.
For CCOC(=O)C1(C)NC(c2ccc(OC)cc2OC)C2C(=O)N(CC)C(=O)C21 (stereo not given) the results were Env fusion inh 9, eIF4H FP inh 1, MT1-MMP act inh -1, Rce1 inhib inactive, CSC inhib -14, PABP polyA inh -2 and MT1-MMP act inh RFP 5.
Screening Cc1cc(N2CCN(c3ccccc3)CC2)nc(N2CCOCC2)n1 returned Env fusion inh 15, eIF4H FP inh -5, MT1-MMP act inh 4, Rce1 inhib inactive, UUG fidelity -17, CSC inhib 4, PABP polyA inh -14 and MT1-MMP act inh RFP -2.
Screening Cc1ccsc1/C=N/n1c(-c2ccco2)n[nH]c1=S returned Env fusion inh -106, eIF4H FP inh 0, MT1-MMP act inh -7, Rce1 inhib inactive, UUG fidelity -23, CSC inhib -16, PABP polyA inh 1 and MT1-MMP act inh RFP -1.
Screening COc1ccc(Cl)cc1C(=O)NNC(=S)NC1CCCC1 returned Env fusion inh 0, eIF4H FP inh 8, MT1-MMP act inh 2, Rce1 inhib inactive, CSC inhib -12, PABP polyA inh -5 and MT1-MMP act inh RFP -1.
CCOc1ccc(CC(=O)NC2CC(C)(C)N(C)C(C)(C)C2)cc1OCC was read as MT1-MMP act inh 2, UUG fidelity 9, CSC inhib -13 and MT1-MMP act inh RFP 4.
For CC(C)C[C@H](NC(=O)C1CCN(C(=O)[C@H](Cc2ccccc2)NC(=O)OC(C)(C)C)CC1)C(=O)O the results were Env fusion inh -12, eIF4H FP inh -13, MT1-MMP act inh -2, Rce1 inhib inactive, UUG fidelity 6, CSC inhib -6, PABP polyA inh 0 and MT1-MMP act inh RFP 1.
Screening Cc1nc(C)c(-c2nnc(-c3ccccc3Cl)o2)cc1C(=O)NN returned Env fusion inh -13, eIF4H FP inh 4, MT1-MMP act inh -1, Rce1 inhib inactive, CSC inhib -9, PABP polyA inh 0 and MT1-MMP act inh RFP 2.
Screening COc1ccc(OC)c(NC(=O)NCc2cccnc2)c1 returned Env fusion inh -9, eIF4H FP inh -8, MT1-MMP act inh -1, Rce1 inhib inactive, UUG fidelity -4, CSC inhib -6, PABP polyA inh 1 and MT1-MMP act inh RFP -1.
For CC(=O)Nc1ccc(NC(=O)CSc2nnc3c4ccccc4n(C)c3n2)cc1 the results were Env fusion inh -6, eIF4H FP inh -1, MT1-MMP act inh 3, Rce1 inhib inactive, CSC inhib -8, PABP polyA inh 10 and MT1-MMP act inh RFP 2.
`Cc1c(-c2ccco2)[n+](=O)c2c(n1[O-])CCC2` gave eIF4H FP inh 2, MT1-MMP act inh -5, Rce1 inhib inactive, UUG fidelity -20, PABP polyA inh -8 and MT1-MMP act inh RFP -2.
For Cc1cc(C(=O)C(C)Sc2cccc[n+]2[O-])c(C)n1-c1ccc(Cl)cc1 (stereo not given) the results were Env fusion inh 7, eIF4H FP inh 0, MT1-MMP act inh -1, Rce1 inhib inactive, UUG fidelity -26, CSC inhib -5, PABP polyA inh 8 and MT1-MMP act inh RFP -14.
COC(=O)CC1COc2ccccc2N1C(=O)c1cc(OC)c(OC)c(OC)c1 (stereo not given) was read as Env fusion inh 0, eIF4H FP inh 3, MT1-MMP act inh 2, Rce1 inhib inactive, UUG fidelity 0, CSC inhib 8, PABP polyA inh -2 and MT1-MMP act inh RFP 0.
COc1ccc(/C=C(\C#N)C(=O)NC(C)c2ccccc2)cc1O (stereo not given) was read as Env fusion inh -6, eIF4H FP inh -12, MT1-MMP act inh -5, Rce1 inhib inactive, UUG fidelity 1, CSC inhib -2, PABP polyA inh 0 and MT1-MMP act inh RFP -4.
Screening C/C(=N\NC(=O)c1ccc(C)cc1)c1c(C)[nH]n(-c2ccccc2)c1=O returned Env fusion inh 15, eIF4H FP inh 14, MT1-MMP act inh 2, Rce1 inhib inactive, UUG fidelity -27, CSC inhib 36, PABP polyA inh 3 and MT1-MMP act inh RFP -8.
CN=c1scc(-c2cccs2)n1/N=C/c1ccc(O)c(O)c1O was read as Env fusion inh -253, MT1-MMP act inh -6, Rce1 inhib inactive, CSC inhib 48 and MT1-MMP act inh RFP -14.
O=C(NCCc1ccccc1)c1cc(=O)c2ccccc2o1 was read as Env fusion inh 7, eIF4H FP inh -1, MT1-MMP act inh -3, Rce1 inhib inactive, CSC inhib -17, PABP polyA inh -4 and MT1-MMP act inh RFP -1.
Screening CCCCCCNc1cc(C)oc(=O)c1C(C)=O returned Env fusion inh -19, eIF4H FP inh -4, MT1-MMP act inh -2, Rce1 inhib inactive, CSC inhib 0, PABP polyA inh -2 and MT1-MMP act inh RFP -2.
For CCOC(=O)c1c(NC(=O)COC(=O)Cc2n[nH]c(=O)c3ccccc23)sc(C(=O)NC)c1C the results were MT1-MMP act inh 0, UUG fidelity -8, CSC inhib -4 and MT1-MMP act inh RFP -1.
`COc1cc2c(cc1OC)C1=NC(=O)CN1C(SCc1ccccc1C)=N2` gave Env fusion inh inconclusive, eIF4H FP inh 1, MT1-MMP act inh 7, Rce1 inhib inactive, UUG fidelity -1, CSC inhib -9, PABP polyA inh 7 and MT1-MMP act inh RFP -10.
Screening COc1ccc(NC(=O)CCC(=O)c2cccs2)cc1Cl returned Env fusion inh 1, eIF4H FP inh -2, MT1-MMP act inh 1, Rce1 inhib inactive, UUG fidelity -14, CSC inhib -4, PABP polyA inh 11 and MT1-MMP act inh RFP 0.
`COc1ccccc1C(=O)Nc1ccccc1C(=O)Nc1ccccc1` gave Env fusion inh -3, MT1-MMP act inh -4, Rce1 inhib inactive, UUG fidelity -16, CSC inhib -6 and MT1-MMP act inh RFP -3.
CCOC(=O)/C=C1/N(C)c2ccccc2C1(C)C was read as Env fusion inh 15, eIF4H FP inh -8, MT1-MMP act inh 3, Rce1 inhib inactive, UUG fidelity -7, CSC inhib -11, PABP polyA inh -4 and MT1-MMP act inh RFP 2.
Cn1c(CSc2ncccn2)nnc1SCC(=O)N1CCCCC1 was read as Env fusion inh 3, eIF4H FP inh -11, MT1-MMP act inh 2, Rce1 inhib inactive, UUG fidelity -15, CSC inhib -4, PABP polyA inh 8 and MT1-MMP act inh RFP 1.
Screening O=C(NCCCCc1ccccc1)C1CC(c2ccccc2C(F)(F)F)=NO1 (stereo not given) returned Env fusion inh 23, eIF4H FP inh -8, MT1-MMP act inh -2, Rce1 inhib inactive, UUG fidelity 7, CSC inhib 0, PABP polyA inh -1 and MT1-MMP act inh RFP 0.
`O=C(NCCCN1CCOCC1)c1ccc2c(c1)N(Cc1cccc(Cl)c1)C(=O)CS2` gave Env fusion inh -1, eIF4H FP inh 4, MT1-MMP act inh 0, Rce1 inhib inactive, UUG fidelity 0, CSC inhib 0, PABP polyA inh 5 and MT1-MMP act inh RFP -1.
CCN(CC(=O)NCc1ccc(F)cc1)Cc1nc2cc(Cl)ccc2c(=O)[nH]1 was read as eIF4H FP inh -4, MT1-MMP act inh -7, UUG fidelity -13, CSC inhib -7, PABP polyA inh 1 and MT1-MMP act inh RFP -2.
Screening CC1CN(S(=O)(=O)c2cccc(C(=O)N(C)C3CCCCC3)c2)CC(C)O1 (stereo not given) returned Env fusion inh 2, MT1-MMP act inh 5, UUG fidelity 1 and MT1-MMP act inh RFP -11.
`COc1ccc(NC(=O)C2C3C=CC(C3)C2C(=O)NCc2ccco2)cc1` (stereo not given) gave Env fusion inh 2, eIF4H FP inh -3, MT1-MMP act inh 1, Rce1 inhib inactive, UUG fidelity -5, CSC inhib -12, PABP polyA inh -3 and MT1-MMP act inh RFP 2.
`COc1ccc(Cn2nnnc2C(c2cccs2)N2CCCCCC2)cc1` (stereo not given) gave Env fusion inh -87, eIF4H FP inh 4, MT1-MMP act inh -10, Rce1 inhib inactive, UUG fidelity -16, CSC inhib 6, PABP polyA inh 29 and MT1-MMP act inh RFP -12.
`O=C(NCCOc1ccccc1F)c1cc(F)c(F)cc1Cl` gave Env fusion inh -14, eIF4H FP inh -7, MT1-MMP act inh 3, Rce1 inhib inactive, CSC inhib 9, PABP polyA inh 4 and MT1-MMP act inh RFP 6.
